Ecoli rRNA inh = inhibitors of bacterial rRNA selective over humanized ribosomes; E. coli WT GFP vs humanized-ribosome RFP mutants, fluorescence, 24 h; stronger effect = lower value; DMSO median 0, no signal -100; GFP signal change (wild-type ribosome), % (concentration not given with the values); hit rate 1.6% among 350,000;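 active = significant combined selectivity score with lowered wild-type GFP, culture density cut under 30%, mutant RFP and density less affected; inactive = any of these conditions unmet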; note: one replicate is shown; some compounds called inactive have numbers as strong as hits
FGF22 binding = FGF22 (human) thermal shift binding. Q9HCT0. recombinant FGF22 thermal shift, SYPRO orange fluorescence; percent of sucrose octasulfate shift, DMSO zero. calls only at 9.99 µM. hit rate 1.5% among 340,000. AID 651658;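 active = melting point raised past a set limit in the mean and every replicate; inconclusive = no clear call; three in four hits are not shown here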
Target sequence (Q9HCT0 whole entry, looked up): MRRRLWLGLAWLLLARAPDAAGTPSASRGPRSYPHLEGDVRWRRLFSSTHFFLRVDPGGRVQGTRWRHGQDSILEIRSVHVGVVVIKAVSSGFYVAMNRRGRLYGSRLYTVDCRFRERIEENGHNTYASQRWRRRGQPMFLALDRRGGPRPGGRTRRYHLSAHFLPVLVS
MLL AF4-AF9 inh = inhibitors of human MLL-AF4/AF9 interaction; AID 651704; AlphaScreen, biotin-AF4 peptide binding to FLAG-AF9; inhibition, % at 10 µM; hit rate 0.47% among 350,000; P42568;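 active = every replicate reaching a set inhibition limit, whatever the replicate mean, cut at about 25% in these data; inconclusive = mean inhibition reaches that limit but some replicates miss it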;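 note: 0% = plate neutral control median and 100% = total signal loss; the record names both 10 and 1 µM as test concentration; the first replicate is given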
ALR inh = blocks human ALR sulfhydryl oxidase activity; hit rate 3.8% among 290,000; P55789; inhibition, % (no concentration beside the values); purified ALR, DTT oxidation, H2O2 HRP-luminol luminescence;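 active = mean and each replicate at 75% or more; inconclusive = only one of the two met; inactive = neither met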;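 note: stock transfer was 7.5 nL into about 7.5 µL; 0% = neutral wells and 100% = wells with inactivated enzyme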
Target sequence (P55789 whole entry, looked up): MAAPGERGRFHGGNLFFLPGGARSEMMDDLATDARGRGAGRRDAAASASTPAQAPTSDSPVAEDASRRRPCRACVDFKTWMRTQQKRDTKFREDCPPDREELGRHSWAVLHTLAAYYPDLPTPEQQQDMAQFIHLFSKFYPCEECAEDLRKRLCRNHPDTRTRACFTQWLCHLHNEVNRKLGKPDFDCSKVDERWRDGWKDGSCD
Vif TR-FRET = HIV-1 Vif–A3G interaction blockers – biochemical, TR-FRET, GST-Vif 1-94, biotin-A3G peptide, dose response retest, primary screen (AID 1117319); TR-FRET GST-Vif / biotin-A3G peptide binding; higher % means a stronger effect; test concentration not given here; strong numbers were not always called active; one-dose inhibition, %; IC50 in µM for titrated hits; hit rate 0.57% among 260,000;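 active = above the screen mean plus three standard deviations and confirmed in dose response; inconclusive = results disagree or hit not tested in dose response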;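 note: Vif residues 1-94 fused to GST binding biotinylated APOBEC3G peptide 110-148; 0% = full assay without inhibitor and 100% = GST in place of GST-Vif; retest series ran down from 100 µM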
HNF4A DNA FP = change in binding of human HNF4 alpha to DNA; P41235; hit rate 0.3% among 360,000; activity change, % at 10 µM; HNF4a-FITC DNA binding, fluorescence polarization, 1 h; AID 1224865; in the data active = activity change above about 30%, passing the limit was not always enough;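 note: controls were the assay level and a saturating level of protein; the project sought stronger binding though the title names inhibitors; some compounds called inactive have numbers as strong as hits; positive values seem to mean higher polarization but the record does not say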
Target sequence (P41235 whole entry, looked up): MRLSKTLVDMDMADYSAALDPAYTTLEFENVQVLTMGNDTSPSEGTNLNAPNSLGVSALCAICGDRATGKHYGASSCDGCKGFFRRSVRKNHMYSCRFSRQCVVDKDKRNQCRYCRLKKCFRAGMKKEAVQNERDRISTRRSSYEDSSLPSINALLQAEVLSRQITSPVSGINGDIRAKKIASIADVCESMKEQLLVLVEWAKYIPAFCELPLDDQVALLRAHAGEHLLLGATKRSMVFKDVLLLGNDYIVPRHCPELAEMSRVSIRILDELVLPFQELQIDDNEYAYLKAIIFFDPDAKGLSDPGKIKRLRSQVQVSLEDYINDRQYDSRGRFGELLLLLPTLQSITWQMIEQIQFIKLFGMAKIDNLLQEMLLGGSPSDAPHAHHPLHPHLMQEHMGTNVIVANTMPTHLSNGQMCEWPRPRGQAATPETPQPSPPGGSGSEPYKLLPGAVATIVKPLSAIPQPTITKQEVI
E coli growth = inhibitors of Escherichia coli growth | OD600 absorbance (test concentration not listed) | OD600, 23 h; stronger effect = lower value | hit rate 0.21% among 330,000;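 active = OD600 absorbance below the run mean of sample wells minus 3.6 SD, in any replicate, cut at about 0.56 in these data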;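 note: stock transfer was 300 nL into about 60 µL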
Ecoli rRNA inh OD600 = further read-out of Ecoli rRNA inh, marked with its call; OD600 change, %; measured here: OD600 growth;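 optical density of the mix in the first replicate; 0 = DMSO median and -100 = no signal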
Ecoli rRNA inh RFP = recorded beside Ecoli rRNA inh, whose call it bears; RFP signal change, %; measured here: RFP humanized mutant strains;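 first replicate; 0 = DMSO median and -100 = no signal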
* marks the source's active call; other numbers are inactive results; i = inactive; ? = inconclusive; . = no result given; + = active, no number; & = joins results of further samples. Some of the compounds tested (hit frequency here may not be typical).

SMILES	Ecoli rRNA inh	Ecoli rRNA inh OD600	Ecoli rRNA inh RFP	FGF22 binding	MLL AF4-AF9 inh	ALR inh	Vif TR-FRET	HNF4A DNA FP	E coli growth
C[C@@H]1CCCCO[C@H](CN(C)C(=O)Nc2ccc(C(F)(F)F)cc2)[C@@H](C)CN([C@H](C)CO)C(=O)c2cc(NS(=O)(=O)c3cccs3)ccc2O1	-3.1	1.0	-3.1	i	-2.2	.	.	.	.
Cc1ccccc1NC(=O)CN1C(=O)NC2(CCCCCCC2)C1=O	1.7	1.1	-0.5	i	1.2	.	0.1%	5.2	0.659
O=C(CCc1nc(-c2ccccc2)no1)Nc1cc(C(F)(F)F)ccc1Cl	.	.	.	.	.	-4.3	10.3%	4.0	0.736
CN1CCN(CCC(=O)Nc2ccc(C3CCCC3)cc2)CC1	5.5	-9.7	1.5	i	6.2	-6.6	5.6%	0.3	0.646
O=[N+]([O-])c1ccc(OCCO)nc1	23.9	7.1	5.0	i	1.0	0.8	?	-6.7	0.649
Cc1cc(N/N=C/c2ccccc2)nc(N)n1	-7.9	-1.9	-4.7	i	3.3	-1.8	10.5%	0.3	.
CC[C@H]1OC(=O)[C@H](C)[C@@H](O[C@H]2C[C@@](C)(OC)[C@@H](O)[C@H](C)O2)[C@H](C)[C@@H](O[C@@H]2O[C@H](C)C[C@H](N(C)C)[C@H]2O)[C@](C)(O)C[C@@H](C)[C@@H]2N[C@@H](COCCOC)O[C@H]([C@H]2C)[C@]1(C)O	-22.6*	-9.8*	5.6*	i	-3.8	.	.	-0.3	.
CCOc1ccc2[nH]c(=O)c(CN(Cc3cccs3)C(CC)c3nnnn3C(C)(C)CC)cc2c1 (stereo not drawn)	.	.	.	.	.	.	-1.0%&18.7%	-0.1	0.717
Cc1nc(N2CCN(c3ccccn3)CC2)c2c(C)c(C(=O)Nc3ccc(F)cc3Cl)sc2n1	-0.2	0.1	-1.5	i	-11.2	-0.1	.	5.2	0.744
Cc1noc(C)c1S(=O)(=O)N(C)C[C@@H]1Oc2c(NC(=O)C3CC3)cccc2C(=O)N([C@@H](C)CO)C[C@@H]1C	1.3	-4.2	-0.8	i	-0.7	.	.	.	.
CCOC1=C2[C@@H](CN(S(=O)(=O)c3ccc(C)cc3)[C@H]2c2ccccc2Cl)[C@H]2C(=O)N(Cc3ccccc3)C(=O)[C@H]2C1	5.5	8.5	2.2	i	-3.1	.	.	0.4	.
CCOC(=O)c1ccc(NC(=O)CCNS(=O)(=O)c2cccs2)cc1	-3.6	3.6	7.4	i	-0.6	0.3	.	0.2	0.704
[O-]C(=C(C(=S)Nc1cccc2ccccc12)[n+]1ccccc1)c1ccc2c(c1)OCCO2	.	.	.	.	.	.	3.6%	4.5	0.67
CCN1CCN(CCCNC(=O)C2CCN(c3nnc(-n4cccc4)s3)CC2)CC1	18.5	15.9	0.7	i	5.5	-3.8	12.3%	3.0	0.656
CN=c1scc(-c2ccccc2F)n1/N=C(\C)c1cccnc1	-48.6	-76.2	-14.8	.	36.9*	93.9*	4.4%	-0.6	.
CCOC(=O)C1CCCN(Cc2cc(=O)oc3cc(C)c(C(C)C)cc23)C1 (stereo not drawn)	-27.4	-43.9	-7.7	i	-3.4	-4.5	1.5%	-2.2	0.719
CCOC(=O)NC(=S)Nc1ccc(OC)cc1	12.1	11.5	1.5	i	0.2	.	17.8%	-0.5	0.672
Cc1ccc(C(=O)NC2CCS(=O)(=O)C2)cc1S(=O)(=O)N1CCCC1 (stereo not drawn)	11.6	17.9	-0.2	i	0.8	-1.4	-8.6%	0.1	0.701
C[C@]12CCC(=O)C=C1CC[C@@H]1[C@@H]2[C@@H](O)C[C@]2(C=O)[C@@H](C(=O)CO)CC[C@@H]12	.	.	.	i	-3.0	3.6	.	1.9	.
C[C@@H]1CN([C@H](C)CO)S(=O)(=O)c2ccc(/C=C/c3ccccc3)cc2O[C@@H]1CN(C)C(=O)c1ccccc1	-3.8	2.7	1.1	i	8.2	.	.	.	.
O=S(=O)(c1cccs1)N1CCC(CO)(Cc2cccc(F)c2)CC1	-23.0*	-16.6*	2.1*	i	-0.5	-6.1	-4.8%	4.0	0.664
Nc1nonc1-n1nnc(C(=O)N/N=C/c2ccc(OCc3ccccc3)cc2)c1COc1ccc(F)cc1	8.3	3.6	1.6	i	10.3	-7.6	-19.9%	3.7	.
CCCC(=O)N1CC2(CN(C(=O)NC(C)C)C2)c2c(n(C)c3cc(OC)ccc23)[C@@H]1CO	-0.7	3.8	-0.8	i	1.5	.	.	.	.
O=c1c(Cc2c(F)cccc2Cl)c(O)ccn1C1CCCCCC1	14.7	1.5	-1.0	i	-1.1	3.7	16.7%	1.8	0.68
CCn1c(N)c(C(=O)N2CCOCC2)sc1=S	.	.	.	.	.	98.2*	31.2%	-1.7	0.674
CCN(CC)C(=O)[C@H]1C[C@H](CC(=O)NCc2ccco2)C(=O)N2CCc3c([nH]c4cc(-c5ccco5)ccc34)[C@]12C	.	.	.	i	0.0	.	-1.9%	0.8	0.669
C[C@@H]1CN([C@@H](C)CO)C(=O)c2cc(NS(C)(=O)=O)ccc2O[C@@H](C)CCCCO[C@H]1CN(C)C(=O)Cc1ccccc1	-2.2	6.1	-2.1	i	7.5	.	.	.	.
Cc1ccc(S(=O)(=O)Nc2ccccc2C(O)c2ccccc2)cc1 (stereo not drawn)	-51.7	-77.7	-19.1	i	0.3	-10.3	-3.3%	2.6	0.648
C[C@H]1CN([C@@H](C)CO)C(=O)c2cc(C#Cc3ccccn3)cnc2O[C@H]1CN(C)Cc1cncnc1	5.6	8.6	-1.2	i	-5.3	.	.	.	.
Cc1ccc2[nH]c(=O)c(CN(Cc3cccnc3)C(=O)c3ccncc3)cc2c1	.	.	.	.	.	2.9	67.8%	3.3	0.72
Cc1nc2ccccc2c2oc(C(=O)NCC3CCCO3)cc12 (stereo not drawn)	.	.	.	.	.	.	-4.5%	-2.7	0.697
COc1ccc(NC(=O)Nc2ccc3c(c2)C(=O)N([C@H](C)CO)C[C@@H](C)[C@@H](CN(C)S(=O)(=O)c2ccc(F)cc2)OCCCC[C@@H](C)O3)cc1	2.0	-1.5	-0.3	i	2.7	.	.	.	.
CN(C(=O)Cc1c[nH]c2ccccc12)C(C(=O)Nc1ccc2c(c1)OCO2)c1ccccc1 (stereo not drawn)	.	.	.	.	.	-11.8	8.3%	-1.8	0.695
CCN(CC(=O)Nc1ccc(NC(C)=O)cc1)C(=O)c1ccc(Sc2nncn2C)c([N+](=O)[O-])c1	12.8	10.6	0.6	i	-7.3	.	8.1%	2.4	.
Cc1ccc(-c2cn3cc([N+](=O)[O-])ccc3n2)cc1	.	.	.	.	.	-2.4	-2.2%	-1.5	0.665
Cc1ncc(CO)c(/C=N/Nc2ccc(C(F)(F)F)cn2)c1O	-6.7	-15.0	1.3	i	7.5	5.5	.	0.7	.
CCOC(=O)c1c(NC(=O)CN2C(=O)NC(C)(c3ccc(OC(F)F)cc3)C2=O)sc(C)c1C (stereo not drawn)	.	.	.	i	1.5	.	.	3.6	0.704
COC(=O)Nc1nn(-c2ccc(OC)cc2)c(=O)c(C#N)c1C	11.1	4.3	7.3	i	-2.4	-16.2	.	4.3	0.696
O=c1c2sccc2nc(SCc2cc(=O)n3cc(Cl)ccc3n2)n1-c1ccc(F)cc1	6.8	14.2	-1.8	i	-19.7	-2.9	8.5%	-1.0	0.685
C[C@@H]1CN([C@H](C)CO)C(=O)c2cc(NC(=O)Nc3ccccc3)ccc2O[C@H]1CN(C)S(=O)(=O)c1ccc(F)cc1	-1.6	3.0	-0.1	i	-8.7	.	.	.	.
COc1ccc(/C=N\NC(=O)c2ccccc2Br)cc1COc1ccccc1	6.9	2.9	1.6	i	-1.3	-9.1	.	-1.5	.
O=C(COC(=O)c1ccc2ncsc2c1)Nc1ccc(OC(F)(F)F)cc1	3.3	1.1	0.3	i	1.4	.	.	-1.8	.
C/C=C/c1ccc2c(c1)O[C@@H](CN(C)Cc1ccncc1)[C@@H](C)CN([C@@H](C)CO)S2(=O)=O	-5.8	-11.5	1.9	+	2.3	.	.	.	.
CN(C)CC(=O)N[C@@H]1CC[C@@H](CCn2cc(C3CCCCC3)nn2)O[C@@H]1CO	-1.6	-0.3	-1.5	i	-2.7	.	.	.	.
C[C@@H]1CN([C@H](C)CO)C(=O)c2cc(NS(=O)(=O)c3cccs3)ccc2O[C@@H](C)CCCCO[C@@H]1CN(C)C(=O)C1CCCCC1	-3.1	-8.6	-0.6	i	-8.2	.	.	.	.
COC(=O)c1cccc(NC(=O)Cc2ccsc2)c1	4.9	8.6	-6.4	i	-1.2	-34.8	-6.1%	-0.5	0.65
C[C@H]1CN([C@@H](C)CO)C(=O)CCCn2nncc2CO[C@@H]1CN(C)C(=O)Nc1ccccc1	0.7	1.5	0.4	i	-1.2	.	.	.	.
COc1ccc([C@H]2/C=C\CN(C(=O)C3CCCC3)[C@@H](C)C(=O)N2Cc2ccc(F)cc2)cc1	-5.7	-9.6	4.6	i	4.5	-16.3	.	-0.6	.
COc1ccc(S(=O)(=O)N2CCOCC2)cc1NC(=O)c1cc2c(s1)CCCC2	.	.	.	.	.	-2.9	.	-0.8	0.697
CC1CN(S(=O)(=O)c2ccc(C(=O)N(CCCN(C)C)c3nc4cc5c(cc4s3)OCCO5)cc2)CC(C)O1 (stereo not drawn)	10.1	14.8	-1.0	i	12.6	-1.4	3.5%	1.6	0.671
CCC(=O)Nc1sc2c(c1C(N)=O)CCN(Cc1ccccc1)C2	1.8	2.3	5.5	i	-5.6	-4.6	.	-3.5	0.775
CN1C(=O)[C@H](Cc2ccc([N+](=O)[O-])cc2)NC1=S	1.3	13.5	1.0	i	2.7	26.8	7.6%	0.3	0.705
O=c1c(S(=O)(=O)c2ccc(Cl)cc2)cn(Cc2cccc(F)c2)c2ccc(F)cc12	.	.	.	i	-0.2	7.1	.	-6.3	0.725
CC(O)c1nc2ccccc2n1CCCOc1ccccc1 (stereo not drawn)	6.8	2.2	8.9	i	-0.6	-8.9	?	0.8	0.668
COc1ccc(N2C(=O)CC(N3CCC(c4nc5ccccc5[nH]4)CC3)C2=O)cc1 (stereo not drawn)	.	.	.	.	.	-5.4	27.2%	-2.6	0.696
Cc1ccc(F)cc1NCC(=O)Nc1ccc(Cl)cc1F	.	.	.	.	.	4.0	13.0%	2.4	0.662
CC1C(=O)N(Cc2cn(Cc3ccco3)nn2)CCS(=O)(=O)N1Cc1ccc(-c2ccc(Cl)cc2)cc1 (stereo not drawn)	-7.6	-11.6	3.2	i	0.5	.	.	-4.8	.
O=C(N[C@H]1CC[C@H](CCNC(=O)c2ccccc2F)O[C@H]1CO)c1cnccn1	0.1	-5.4	-3.6	i	-0.8	.	.	.	.
Cc1ccc(C(=O)Nc2ccc(S(=O)(=O)N3CCN(C)CC3)cc2)o1	-0.1	-1.4	-4.8	i	5.1	-7.5	?	-0.2	0.728
CCOc1ccc(N(CC(=O)Nc2c(C)cc(C)cc2C)C2=NC3CS(=O)(=O)CC3S2)cc1 (stereo not drawn)	3.8	9.0	-6.6	i	-3.7	.	.	2.9	.

Screening data deposited in PubChem by several laboratories.
